Vaccinia Venus = vaccinia inhibition (Venus reporter). 330,000 compounds, 0.46% hits. Vaccinia virus Venus reporter expression, fluorescence. Potency, µM (highest dose often 36.5 µM), inactives show top-dose activity change, negative = inhibition, usual class: inhibitors; active means well fitted inhibition curve with a large enough effect; inconclusive means small, poorly fitted or top-dose-only effect; inactive means no such curve, though single readings can be large or run the other way; tested in A549 cells; note: nearly all actives have a fitted effect of over 30% in size; inactives centre near -10
VACV mCherry inh = vaccinia inhibition (mCherry reporter) | Vaccinia virus mCherry reporter infection, fluorescence; about a quarter of the inactives have no number | Potency, µM (doses to about 36.5 µM), for inactives: at the top dose activity change, negative = inhibition, actives largely listed as inhibitors | 310,000 compounds, 0.63% hits | AID 720579; active = well fitted inhibition curve with a large enough effect; inconclusive = small, poorly fitted or top-dose-only effect; inactive = no such curve, though single readings can be large or run the other way; tested in A549 cells; note: nearly all actives have a fitted effect of over 35% in size; inactives centre near -10
Active calls of the source: *; [ ] = dose if it differs, or a comment. % is set by controls: 0 for no effect and ±100 for the full control effect; potency is the fitted concentration of half-maximal effect.

Screening Cc1cccc(C)c1N(C(=O)c1ccco1)C(C(=O)NC1CCCC1)c1ccncc1 (configuration not stated) returned Vaccinia Venus -10% and VACV mCherry inh -10%.
COc1ccc(N2CCN(C(CNC(=O)CC(C)(C)C)c3ccc4c(c3)OCO4)CC2)cc1 (configuration not stated) was read as Vaccinia Venus -15% and VACV mCherry inh -11%.
COC(=O)c1sc(NC(=O)/C=C/c2ccc(OC)c(OC)c2)c(C(=O)OC)c1C was read as Vaccinia Venus inconclusive and VACV mCherry inh inconclusive.
`O=C(O)CN1CCN(CC(=O)O)CCN(CC(=O)O)CCN(CC(=O)O)CC1` gave Vaccinia Venus -6% and VACV mCherry inh -5%.
For CCOC(=O)C1CCN(S(=O)(=O)c2ccc(C(=O)OC)cc2)CC1 the results were Vaccinia Venus -13% and VACV mCherry inh inactive.
COC(=O)C1=C(c2c(C)noc2C)C[C@@H]2CC[C@H]1N2C(=O)NCc1ccc2c(c1)OCO2 was read as Vaccinia Venus -5% and VACV mCherry inh -26%.
For CC(Sc1nc2ccccc2s1)C(=O)NC1CCCc2ccccc21 (configuration not stated) the results were Vaccinia Venus -10% and VACV mCherry inh -6%.
For COc1ccc(Br)cc1S(=O)(=O)NCCN1CCOCC1 the results were Vaccinia Venus -9% and VACV mCherry inh inactive.
Screening Cc1ccc2nc(SCC(=O)Nc3cc(C)on3)c(C)cc2c1 returned Vaccinia Venus 4% and VACV mCherry inh inactive.
CN(C)CCNc1nc2c(c(=O)[nH]c(=O)n2C)n1CC(O)COc1ccc(Cl)cc1 (configuration not stated) was read as Vaccinia Venus -9% and VACV mCherry inh -16%.
CCCC(C)C(=O)Nc1ccncc1 (configuration not stated) was read as Vaccinia Venus -15% and VACV mCherry inh -13%.
CCN(CC)c1ccc(NC(=O)Nc2ccccc2C(F)(F)F)cc1 was read as Vaccinia Venus -14%.
Screening CCCCc1nnc(NC(=O)c2ccc(S(=O)(=O)N3CCOCC3)cc2)s1 returned Vaccinia Venus -1% and VACV mCherry inh -10%.
Screening COC(=O)CNC(=O)c1ccccc1 returned Vaccinia Venus -2% and VACV mCherry inh -6%.
COC(=O)c1c(-c2ccco2)csc1NC(=O)C1CC=CCC1C(=O)O (configuration not stated) was read as Vaccinia Venus -8%.
CCN(CC)S(=O)(=O)c1cccc(NC(=O)COC(=O)c2cncc(Br)c2)c1 was read as Vaccinia Venus -6% and VACV mCherry inh -13%.
`COc1cccc(-n2sc3c(c2=S)-c2cc(OC)ccc2NC3(C)C)c1` gave Vaccinia Venus inconclusive and VACV mCherry inh inconclusive.
Screening O=C(C1CCCN(S(=O)(=O)c2cccc3nsnc23)C1)N1CCN(c2ccccc2Cl)CC1 (configuration not stated) returned Vaccinia Venus -16% and VACV mCherry inh -28%.
`CNC(=O)C(NC(=O)Nc1ccc(C)cc1)C(C)(C)C` (configuration not stated) gave Vaccinia Venus -4% and VACV mCherry inh -5%.
For CC(C)(CNC(=O)c1cc2ccccc2o1)N1CCOCC1 the results were Vaccinia Venus -6% and VACV mCherry inh -13%.
For CCC1CN(C(=O)Nc2cc(Cl)c(OC)cc2OC)c2ccccc2O1 (configuration not stated) the results were Vaccinia Venus -10% and VACV mCherry inh -7%.
For Cc1c(C)n(C)c2ccc(C(=O)NCc3cccs3)cc12 the results were Vaccinia Venus -16% and VACV mCherry inh -7%.
For C[C@H](c1ccccc1)N1C[C@H](COCc2ccccc2)Oc2cc(N3CCC[C@H]3CO)ccc2S1(=O)=O the results were Vaccinia Venus -1% and VACV mCherry inh 16%.
Screening CCCN(CCC)C(=O)CSc1c2c(nc3ccc(Cl)cc13)CCCC2 returned Vaccinia Venus -19% and VACV mCherry inh -13%.
Screening COC(=O)c1c(C)c2c(C)cc3ccccn3c-2c1C(=O)OC returned Vaccinia Venus -21%.
For CCc1ccc(S(=O)(=O)c2cn(CC)c3cc(N4CCCCC4)c(F)cc3c2=O)cc1 the results were Vaccinia Venus -21% and VACV mCherry inh -11%.
Screening CCOc1cccc2cc(-c3cn4cc(C)ccc4n3)c(=O)oc12 returned Vaccinia Venus -12% and VACV mCherry inh inactive.
Screening COc1ccc(C2=Nc3ccccc3N(C(=O)c3ccc4c(c3)OCO4)C2C(=O)Nc2c(C)cccc2C)cc1 (configuration not stated) returned Vaccinia Venus -21% and VACV mCherry inh -5%.
For CN(CC(=O)Nc1c(Cl)cccc1Cl)C(=O)c1sccc1-c1ccccc1 the results were Vaccinia Venus -3% and VACV mCherry inh -4%.
COc1ccc(C(CNC(=O)c2ccc(OCc3cscn3)cc2)N2CCCC2)cc1 (configuration not stated) was read as Vaccinia Venus -14% and VACV mCherry inh -13%.
`CCOC(=O)N1CCN(C(=O)c2ccc(NS(=O)(=O)c3ccc(C)cc3)cc2)CC1` gave Vaccinia Venus -20% and VACV mCherry inh -1%.
`CCN(c1ccccc1C)S(=O)(=O)c1nnc(NC(=O)c2ccc(OC)c(OC)c2)s1` gave Vaccinia Venus 1% and VACV mCherry inh -6%.
For C=CCc1ccc(OCCCNC2CCCC2)c(OC)c1 the results were Vaccinia Venus -29% and VACV mCherry inh -1%.
For O=C(COC(=O)Cc1cccs1)Nc1cc(S(=O)(=O)N2CCOCC2)ccc1Cl the results were Vaccinia Venus -7% and VACV mCherry inh inactive.
For CCOc1ccc(N(CC)S(=O)(=O)N2CCCC(C(=O)NCc3ccc(Cl)cc3)C2)cc1 (configuration not stated) the results were Vaccinia Venus -19% and VACV mCherry inh -13%.
Screening Cc1ccc2c(cnn2C(=O)CCC(=O)NCc2cccc(Cl)c2)c1 returned Vaccinia Venus -15% and VACV mCherry inh -3%.
Screening CC1(C)O[C@H]2[C@@H](O1)[C@@H](C(=O)Nc1cc(F)ccc1F)O[C@@H]1OC(C)(C)O[C@@H]12 returned Vaccinia Venus -9% and VACV mCherry inh -7%.
For Cc1ccc(S(=O)(=O)NC(CC(C)C)C(=O)N2CCC(C)CC2)cc1 (configuration not stated) the results were Vaccinia Venus -11% and VACV mCherry inh inactive.
Screening CCOC(=O)C1CCC(CN(Cc2c(Cl)cccc2Cl)S(=O)(=O)c2ccc(Cl)cc2)CC1 (configuration not stated) returned Vaccinia Venus -3% and VACV mCherry inh -6%.
Screening Cc1cc(C)c2oc(C(=O)Nc3sc4c(c3C(=O)NCc3ccco3)CCC4)cc(=O)c2c1 returned Vaccinia Venus -5% and VACV mCherry inh 6%.
Nc1cc(-c2ccc(Br)cc2)nn1S(=O)(=O)c1cccc2nsnc12 was read as Vaccinia Venus inconclusive and VACV mCherry inh inconclusive.
Screening Cc1ccccc1C(=O)NC(C)C(c1cccs1)N1CCOCC1 (configuration not stated) returned Vaccinia Venus 4% and VACV mCherry inh -17%.
For CCOc1ccc(N(CC(=O)NC2CCCCC2)C(=O)CCC(=O)Nc2nc(C)cs2)cc1 the results were Vaccinia Venus -7% and VACV mCherry inh inactive.
`CC(C)c1ccc(NC(=O)C(c2ccc3c(c2)OCO3)N2CCC3(CC2)OCCO3)cc1` (configuration not stated) gave Vaccinia Venus -7% and VACV mCherry inh -19%.
Screening CCOC(=O)c1sc(-c2cccc([N+](=O)[O-])c2)cc1N returned Vaccinia Venus -12% and VACV mCherry inh -11%.
Cc1ccccc1-n1nnnc1SCCCC(=O)c1ccc(F)cc1 was read as Vaccinia Venus -6% and VACV mCherry inh -1%.
Screening Cc1cccc(-n2c(=O)c3c4c(sc3n3c(=S)[nH]nc23)CCC4)c1 returned Vaccinia Venus -15% and VACV mCherry inh inactive.
For COc1ccc(C(=O)Nc2nnc(S(=O)(=O)N3CCN(c4ccc(F)cc4)CC3)s2)cc1 the results were Vaccinia Venus -26% and VACV mCherry inh -26%.
`COc1ccc(OC)c(CCNC(=O)CCCC(=O)n2ncc3cc(C)ccc32)c1` gave Vaccinia Venus -4% and VACV mCherry inh inactive.
`O=C(NCCc1ccccc1)C(=O)NCC(c1ccco1)S(=O)(=O)c1ccccc1` (configuration not stated) gave Vaccinia Venus -6% and VACV mCherry inh -4%.
For CC(=O)N1c2ccc(S(=O)(=O)N3CCC(C(=O)Nc4cccc(C(F)(F)F)c4)CC3)cc2CC1C (configuration not stated) the results were Vaccinia Venus -16%[7.34 µM] and VACV mCherry inh -14%[7.34 µM].
Screening COC(=O)C[C@@H]1CC[C@@H](NC(=O)C2CCC2)[C@@H](CO)O1 returned Vaccinia Venus -16% and VACV mCherry inh -16%.
`COCC(=O)N(CCc1ccc(OC)c(OC)c1)Cc1nc2ccccc2c(=O)[nH]1` gave Vaccinia Venus -14% and VACV mCherry inh inactive.
Screening CCOC(=O)c1ccc(NC(=O)CSc2nnc(Cc3cccs3)n2C)cc1 returned Vaccinia Venus -7% and VACV mCherry inh -9%[1.46 µM].
`CCN(CC)C(C(=O)Nc1ccc(C(C)C)cc1)c1ccc2c(c1)OCO2` (configuration not stated) gave Vaccinia Venus -26% and VACV mCherry inh -6%.
O=C(Nc1cccc(S(=O)(=O)NC2=NCCC2)c1)c1ccccc1OC(F)F was read as Vaccinia Venus -12% and VACV mCherry inh -13%.
`CCc1ccc(OCC(=O)NC(=S)Nc2cccc(CO)c2)c(Br)c1` gave Vaccinia Venus -5% and VACV mCherry inh -1%.
Screening COc1cccc(N2CCN(C(=O)c3cc4c(=O)n(Cc5cccnc5)ccc4nc3C)CC2)c1 returned Vaccinia Venus -7% and VACV mCherry inh -10%.
For O=C(NS(=O)(=O)N1CCOCC1)C1=C(N2CCCC2)COC1=O the results were Vaccinia Venus -2% and VACV mCherry inh inactive.
Screening Cc1ccc2c(C)c(C(=O)N(Cc3ccc(F)cc3)C3CCS(=O)(=O)C3)oc2c1 (configuration not stated) returned Vaccinia Venus -22% and VACV mCherry inh inactive.

Arranged by SMILES length (highest first): part of the list above
For COc1ccc(C(=O)Nc2nnc(S(=O)(=O)N3CCN(c4ccc(F)cc4)CC3)s2)cc1 the results were Vaccinia Venus -26% and VACV mCherry inh -26%.
Screening Cc1ccc2c(C)c(C(=O)N(Cc3ccc(F)cc3)C3CCS(=O)(=O)C3)oc2c1 (configuration not stated) returned Vaccinia Venus -22% and VACV mCherry inh inactive.
`COCC(=O)N(CCc1ccc(OC)c(OC)c1)Cc1nc2ccccc2c(=O)[nH]1` gave Vaccinia Venus -14% and VACV mCherry inh inactive.
`O=C(NCCc1ccccc1)C(=O)NCC(c1ccco1)S(=O)(=O)c1ccccc1` (configuration not stated) gave Vaccinia Venus -6% and VACV mCherry inh -4%.
Screening COC(=O)C[C@@H]1CC[C@@H](NC(=O)C2CCC2)[C@@H](CO)O1 returned Vaccinia Venus -16% and VACV mCherry inh -16%.
O=C(Nc1cccc(S(=O)(=O)NC2=NCCC2)c1)c1ccccc1OC(F)F was read as Vaccinia Venus -12% and VACV mCherry inh -13%.
`CCN(CC)C(C(=O)Nc1ccc(C(C)C)cc1)c1ccc2c(c1)OCO2` (configuration not stated) gave Vaccinia Venus -26% and VACV mCherry inh -6%.
For O=C(NS(=O)(=O)N1CCOCC1)C1=C(N2CCCC2)COC1=O the results were Vaccinia Venus -2% and VACV mCherry inh inactive.
Cc1ccccc1-n1nnnc1SCCCC(=O)c1ccc(F)cc1 was read as Vaccinia Venus -6% and VACV mCherry inh -1%.

(continued)
For C=CCn1c(SCC(=O)NC2CCCC2)nnc1-c1cccnc1 the results were Vaccinia Venus -6% and VACV mCherry inh -10%.
`COCCN1Cc2cccc(C(=O)Nc3ccc4c(c3)OCCO4)c2C1=O` gave Vaccinia Venus 3% and VACV mCherry inh -3%.
COc1ccc(Cl)cc1NC(=O)CN(C)C(=O)c1ccc(OCc2ccccc2)c(OC)c1 was read as Vaccinia Venus inconclusive and VACV mCherry inh inconclusive.
`CC(C)Oc1ccc(C(=O)NCC2Cc3cc(Cl)cc(-c4ncccn4)c3O2)cc1` (configuration not stated) gave Vaccinia Venus -10% and VACV mCherry inh -14%.
N#Cc1ccccc1NC(=O)C(=O)NCC(c1ccc2c(c1)OCO2)N1CCOCC1 (configuration not stated) was read as Vaccinia Venus -8% and VACV mCherry inh -9%.
CCOC(=O)N1CCN(C(=O)C2CCN(S(=O)(=O)c3cc(Cl)ccc3OCC)CC2)CC1 was read as Vaccinia Venus -18% and VACV mCherry inh 0%.
Screening CNc1ccccc1C(=O)OC(C)C(=O)Nc1ccc(Cl)cn1 (configuration not stated) returned Vaccinia Venus 10µM* and VACV mCherry inh inconclusive.
Screening Cc1cc2c(cc1S(=O)(=O)Nc1cccc(Cl)c1C)OCCN2C returned Vaccinia Venus -18% and VACV mCherry inh -25%.
CC(=O)Nc1c(NC(=O)CC#N)[nH]c2c(c1=O)c(=O)n(C)c(=O)n2C was read as Vaccinia Venus 7% and VACV mCherry inh inactive.
For COc1ccccc1C1C(C(N)=O)=C(C)Nc2nc(CCCO)nn21 (configuration not stated) the results were Vaccinia Venus -4% and VACV mCherry inh -4%.
CCN(C(=O)Cn1c(=O)oc2ccccc21)c1cccc(C)c1 was read as Vaccinia Venus 0% and VACV mCherry inh inactive.
`COCCCNC(=O)c1ccc2c(=O)n(Cc3ccc(OC)cc3)c(=O)[nH]c2c1` gave Vaccinia Venus 6% and VACV mCherry inh -10%.
Screening CC(C)CCn1c(=O)c2ccccc2n2c(CN3C(=O)NC4(CCC(C)CC4)C3=O)nnc12 (configuration not stated) returned Vaccinia Venus -15% and VACV mCherry inh -2%.
Screening COc1ccccc1C(=O)NC(=O)COC(=O)CNC(=O)c1ccc(Cl)c([N+](=O)[O-])c1 returned Vaccinia Venus -10% and VACV mCherry inh -1%.
`Cc1ccc(OCC(=O)Nc2nonc2-c2ccc(Br)cc2)cc1C` gave Vaccinia Venus -9% and VACV mCherry inh -15%.
CCOC(=O)c1cnc(=O)[nH]c1C was read as Vaccinia Venus -2% and VACV mCherry inh -12%.
Cc1ccc(NC(=O)CSc2ccc(-c3cccnc3)nn2)c(C)c1 was read as Vaccinia Venus -12% and VACV mCherry inh -15%.

Screens from PubChem.
